Screening results: PubChem BioAssay, National Center for Advancing Translational Sciences (NCATS)
Bst PK mod – alters activity of Bacillus stearothermophilus pyruvate kinase; partly purified Bacillus stearothermophilus pyruvate kinase, luminescence ATP production; ribose 5-phosphate activator present at AC10; Potency, µM; 51,000 compounds, 1.2% hits; in the data active means potency below about 11 µM; inconclusive means mostly about 12 µM to 25 µM; inactive means weaker than that;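 the screen sought inhibitors and activators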;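 further: potency means the concentration at half of the fitted maximal effect; scaled between full activation by ribose 5 phosphate and full inhibition by luteolin; about four in five hits inhibit and the cells do not say which; series up to 57 µM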
TsaE inh – YjeE (TsaE) inhibition, E. coli; Potency, µM; 71,000 compounds, 0.05% hits; purified YjeE, fluorescence polarisation of a bound ADP probe; AID 605; active = well fitted falling curve; inconclusive = weaker or top-dose-only fall, or a rising curve; inactive = flat or poorly fitted curve;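 further: top concentration of the series not given in the record; excess ADP was the control for the full effect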
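Purified YjeE (10 uM) with BODIPY Texas Red-labeled ADP probe (2 uM); compounds pin-transferred, 15 min at room temperature. Binding inhibition read as decreased fluorescence polarization; ADP titration as control.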
An asterisk follows results filed as active; i = inactive; u = inconclusive; x = no result given. A portion of the library. The share of hits here may be higher or lower than overall.

SMILES	Bst PK mod	TsaE inh
O=C1c2cccnc2C(Nc2ccc(S(=O)(=O)N3CCCCCC3)cc2)N1Cc1ccccc1 (stereo not given)	>57	i
N#CC1=C(N)Oc2c(oc(CO)cc2=O)C1c1ccsc1 (stereo not given)	>57	i
c1cncc(CSc2ncnc3nc[nH]c23)c1	x	i
CN(C)CCC(=O)c1ccc(Cl)cc1	>57	i
C=C(C)c1cccc(C(C)(C)NC(=O)N2CCN(c3ncccn3)CC2)c1	>57	i
CCN1CCN(C(=O)Cn2ncc3c2-c2ccccc2OC3)CC1	x	i
Cn1c(C(=O)N2CCCC(C(=O)NCCN3CCOCC3)C2)cc2sccc21 (stereo not given)	>57	i
COc1ccc(N2C(=O)CCC(C(=O)N3CCCCC3)C2c2ccc(OC)c(OC)c2)cc1 (stereo not given)	>57	i
COc1ccc(-n2c(=O)cc(N3CCN(Cc4ccccc4)CC3)[nH]c2=O)cc1	x	i
O=C(Nc1ccc2c(c1)OCCO2)C1CCCN(S(=O)(=O)c2cccs2)C1 (stereo not given)	>57	i
CCOc1nc(OCC)nc(-n2cc(-c3ccccc3)nn2)n1	>57	i
Cc1nnc(NC(=O)c2ccc(S(=O)(=O)N3CCCCCC3)cc2)o1	>57	i
Cc1ccc(S(=O)(=O)Nc2cc(=O)[nH]c3c2CCC3)cc1	x	i
Cc1cc(NCCN2CCOCC2)n2nc(C)c(-c3ccc(Cl)cc3)c2n1	>57	i
O=C(c1cn(-c2ccccc2)nc1-c1ccc(Cl)s1)N1CCOCC1	x	i
Cc1cccc(C(=O)O)c1C[C@H]1NCC[C@H]2c3ccccc3N[C@@H]12	x	i
CN1[C@H](Cc2ccccc2)C=C[C@]1(C)C(=O)NCC1CC1	x	i
Cc1ccc(S(=O)(=O)NCCSc2nnnn2-c2cc(C)ccc2C)cc1	>57	i
c1ccc(CCc2ccccc2-c2nc(-c3cccnc3)no2)cc1	x	i
CCOc1ccc(OCC)c(NC(=O)C2CCN(S(=O)(=O)c3cnc[nH]3)CC2)c1	x	i
O=C(OCC(=O)N1CCN(c2ccccc2)CC1)C1=COCCO1	>57	i
Cc1cccc2sc(NC(=O)Cn3cccc3)nc12	x	i
CCCCNS(=O)(=O)c1ccc(OC)c2ncccc12	>57	i
CN1CCN(CC(=O)Nc2nc(-c3ccccc3)cs2)CC1	>25.6	x
CCCCSc1nc2c(cc1C#N)CCC2	>57	i
SMILES	Bst PK mod	TsaE inh
Nn1c(-c2ccccn2)nnc1-c1ccccn1	>57	i
O=c1c2ccccc2nc(SCc2nnc(-c3ccccc3)o2)n1-c1ccc(F)cc1F	>57	i
CCC(C)Nc1ccc(NC(C)CC)cc1 (stereo not given)	x	100µM*
Cc1ccc(N2C(=O)CC(NCc3ccc4c(c3)OCO4)C2=O)cc1Cl (stereo not given)	x	i
CCOC(=O)c1cccc(S(=O)(=O)N(CCO)Cc2cc3cc(OC)ccc3[nH]c2=O)c1	>57	i
ONC(=Nc1ccccc1)C(=Nc1ccccc1)NO	>25.6	x
CC(=O)Nc1cccc(NC(=O)CSc2nnc(Cc3cccn3C)n2-c2ccc(C)cc2)c1	>57	i
Cc1cc(C)n(-c2nc(C)nc(N)n2)n1	>57	i
CC1=C(C)CC(C(=O)Nc2cccc(Cl)c2)C(C(=O)O)C1 (stereo not given)	>57	i
CC1CN(c2nc3ccccc3nc2C(C#N)C(=O)OC2CCCCC2)CC(C)O1 (stereo not given)	>57	i
O=C(NC1CCCCC1)N(CCN1CCCC1)Cc1cc2cc3c(cc2[nH]c1=O)OCCO3	>57	i
O=C(NCCCN1CCCC1=O)c1nnc(Cc2c(F)cccc2Cl)o1	>11.4	i
CCCNS(=O)(=O)c1ccc(OCC(=O)Nc2ccccc2F)cc1	>57	i
COc1ccc(OC)c(C(=O)c2coc3ccc(O)cc23)c1	x	i
CCOc1ccccc1Oc1coc2cc(OC(=O)c3ccco3)ccc2c1=O	>57	i
COc1ccc(Cl)cc1NC(=O)NC(C)c1ccncc1 (stereo not given)	>57	i
CCCc1nc(SCc2ccccn2)c2c(=O)n(C)c(=O)n(C)c2n1	x	i
CCS(=O)(=O)N1CCN(C(C)CCc2ccccc2)CC1 (stereo not given)	x	i
COc1ccc(CN2C(=O)[C@@H]3C(c4ccccc4Cl)=NO[C@@H]3C2=O)cc1	>57	i
COc1cc2c(C(=O)N3CCN(c4ccccc4)CC3)c(C)oc2cc1Br	>25.6	x
COC(=O)c1[nH]c(C)c(/C(O)=C2\C(=O)C(=O)N(CCN3CCOCC3)C2c2cccnc2)c1C (stereo not given)	>25.6	x
COCC(=O)Nc1ccc(C(N)=O)cc1	x	i
Clc1ccc(N2CCN(Cc3c[nH]c4ncccc34)CC2)cc1	x	i
O=C1CCCC2=C1C(c1cccc(Br)c1)n1nc(-c3ccco3)nc1N2 (stereo not given)	x	i
COc1ccc(Oc2ncc3nc(-c4cn(C)c5ccccc45)c(=O)n(C)c3n2)cc1	x	i
SMILES	Bst PK mod	TsaE inh
C=CCNC(=O)C1CCN(S(=O)(=O)c2ccc(Br)cc2)CC1	x	i
Cn1cc(Cl)c(C(=O)NC2CCCCCC2)n1	>57	i
Cc1cc(C)c2nc(SCCC#N)nc(C)c2c1	i	x
Cc1ccc2cc(C(c3nnnn3C3CCCC3)N3CCN(c4ccccc4)CC3)c(=O)[nH]c2c1 (stereo not given)	>57	i
COc1ccc(/C=C(/C#N)c2cccnc2)cc1OC	>25.6	x
CCc1ccc(C(=O)N2CCCC2)s1	>57	i
CCN(CC)c1ccc2c(Cl)c(Br)c(=O)oc2c1	i	u
COc1ccc(CC(=O)Nc2c3c(nn2-c2cccc(C)c2C)CS(=O)(=O)C3)cc1	>57	i
Cc1csc(=Nc2ccc(S(=O)(=O)N3CCOCC3)cc2)n1Cc1ccco1	>57	i
COc1cc(C)nc(NS(=O)(=O)c2ccccc2)n1	>57	i
COCCCNC(=O)C1CCCN(C(=O)Nc2ccc(OC)cc2)C1 (stereo not given)	>57	i
C=CCSc1nnc(Cc2c(C)[nH]c3ccccc23)o1	x	i
COC(=O)c1[nH]c2cc(OC)c(OC)cc2c1NC(=O)CN1CCN(Cc2ccccc2)CC1	>57	i
CC(C)C(C(=O)Nc1cccnc1)N1C(=O)c2ccccc2C1=O (stereo not given)	>57	i
CC(=O)c1cc(C#N)c(SCC(=O)OC(C)(C)C)nc1C	>57	i
O=C(c1cccc(OC(F)F)c1)N1CCN(c2ncccn2)CC1	>57	i
Cc1nn(-c2ccccc2)c2c1C(=O)NC(=O)C(C)(C)C2	>25.6	x
CCn1c(=O)cc(SCC(=O)Nc2cccnc2)c2ccccc21	x	i
OC1CCN(c2c3c(nc4cc(-c5cccc(F)c5)nn24)CCCC3)CC1	i	i
c1ccc2oc(C3=NCCN3)cc2c1	x	i
FC(F)(F)c1cc(-c2ccccc2)nc(NCC2CCCO2)n1 (stereo not given)	>57	i
CCC(Oc1ccccc1)C(=O)NCc1cccnc1 (stereo not given)	>57	i
O=C(O)C(NS(=O)(=O)c1cccc2cccnc12)c1ccccc1 (stereo not given)	x	i
CCOC(=O)c1ccc(NC(=O)NC2CCN(CC(=O)NCc3ccc4c(c3)OCO4)CC2)cc1	>57	i
CCCOc1ccc(C2C(C#N)=C(N)Oc3nc[nH]c(=O)c32)cc1OC (stereo not given)	>57	i

Next part; the last five above are carried over.
SMILES	Bst PK mod	TsaE inh
FC(F)(F)c1cc(-c2ccccc2)nc(NCC2CCCO2)n1 (stereo not given)	>57	i
CCC(Oc1ccccc1)C(=O)NCc1cccnc1 (stereo not given)	>57	i
O=C(O)C(NS(=O)(=O)c1cccc2cccnc12)c1ccccc1 (stereo not given)	x	i
CCOC(=O)c1ccc(NC(=O)NC2CCN(CC(=O)NCc3ccc4c(c3)OCO4)CC2)cc1	>57	i
CCCOc1ccc(C2C(C#N)=C(N)Oc3nc[nH]c(=O)c32)cc1OC (stereo not given)	>57	i
CCN(CC)S(=O)(=O)c1csc(C(=O)NC2CCCCC2)c1	>57	i
Cc1cccc(NC(=O)CN(C)S(=O)(=O)c2ccc(Cl)cc2)n1	>57	i
CCOc1ccc(S(=O)(=O)n2ccnc2)c2ccccc12	x	i
CCOC(=O)c1cnc(-n2nc(C)cc2C)nc1Nc1ccc(N(C)C)cc1	>57	i
CC(C)C(=O)Nc1cccc(NC(=O)CCN2C(=O)c3ccccc3S2(=O)=O)c1	>57	i
CCOC(=O)Cc1csc(NC(=O)CSc2nnnn2-c2ccc(CC)cc2)n1	>57	i
CC(O)c1nc2ccccc2n1C1CCCCC1 (stereo not given)	>57	i
CCn1cc(C(=O)NC2CCCC2)c(=O)c2cc(S(=O)(=O)N3CCOCC3)ccc21	>57	i
CCCCOc1[nH]c2nc(-c3ccco3)n(Cc3ccco3)c(=N)c2c1C#N	10.9*	i
COc1ccc(CCNC2CC(=O)N(CCc3ccccc3)C2=O)cc1OC (stereo not given)	x	i
CN(C)C(=O)c1ccc(-c2ccc3ncnc(Nc4ccc(F)cc4)c3c2)cc1	x	i
O=C(Nc1ccc2c(c1)OCO2)N1CCN(c2cccc(C(F)(F)F)c2)CC1	>57	i
COc1ccccc1C1C=C(c2ccc(Cl)cc2)Nc2nc(NS(C)(=O)=O)nn21 (stereo not given)	>57	i
C[C@H](OP(=O)(O)O)[C@H](N)C(=O)O	x	i
O=C(CN(C(=O)CCC(=O)Nc1nccs1)c1ccc(F)cc1)NCC1CCCO1 (stereo not given)	>57	i
COCN(C#N)c1nc(OC)nc(OC)n1	x	i
CCCCC(CC)C(=O)Nc1ccc(Cl)cn1 (stereo not given)	>57	i
O=C(Nc1ccccn1)c1cccc(S(=O)(=O)N2CCOCC2)c1	x	i
CCOC(=O)c1oc2c(O)c(O)ccc2c(=O)c1-c1nncn1-c1ccccc1	>57	i
CCOC(=O)C(Cc1c[nH]c2ccccc12)NC(=O)c1ccco1 (stereo not given)	>57	i
CCN1CCN(c2oc(COc3ccc(-c4ccccc4)cc3)nc2C#N)CC1	x	i
Cc1cc2c(cc1C)/C(=C\C(N)=O)NC(C)(C)C2	>57	i
CC1=C(CC[C@H](C)CO)O[C@@H]2C[C@@H]3[C@H]4CC[C@H]5C[C@@H](O)CC[C@]5(C)[C@@H]4CC(=O)[C@@]3(C)[C@@H]12	x	i
CCN1C(=O)CC(N2CCN(c3ccc(Cl)cc3)CC2)C1=O (stereo not given)	x	i
COc1cc(-c2nnc(SCC(=O)Nc3cc(C)on3)n2C)cc(OC)c1O	>57	i

One compound at a time (already shown):
CC(C)C(=O)Nc1cccc(NC(=O)CCN2C(=O)c3ccccc3S2(=O)=O)c1 is listed as Bst PK mod = >57; TsaE inh = i
Cc1cc2c(cc1C)/C(=C\C(N)=O)NC(C)(C)C2 is listed as Bst PK mod = >57; TsaE inh = i

Later entries
SMILES	Bst PK mod	TsaE inh
Cn1cnc2cc(NS(=O)(=O)c3ccc(Br)cc3)ccc21	u	i
O=C(CSc1nc(-c2ccccc2)cc(=O)[nH]1)Nc1ccccn1	>57	i
CCCN(CCC)S(=O)(=O)c1ccc(C(=O)NCc2ccc3c(c2)OCO3)cc1	x	i
CCCCN(CC)C(=O)C1CCC(=O)N(c2ccc(OC)cc2)C1c1ccc(OC)c(OC)c1 (stereo not given)	>57	i
CCc1nnc(NC(=O)CSc2nnc(C)n2CC2CCCO2)s1 (stereo not given)	>57	i
Cc1ccccc1N1CCN(Cc2cccc(C(=O)O)c2)CC1	>57	i
N#Cc1cccc(NC(=O)Nc2cccs2)c1	x	i
Cc1ccc(C)c(NS(=O)(=O)c2cc(C(N)=O)ccc2C)c1	>57	i
COc1cc2c(cc1OC)/C(=C/C#N)NC(C)(C)C2	>57	i
Cc1ccc(NC(=O)Cn2cccc2)cc1Cl	>57	i
Cc1cc(N2CCN(C(=O)c3ccco3)CC2)n2ncc(-c3ccccc3)c2n1	>57	i
Cc1cc(C)cc(OCC(=O)N2CCCCCC2)c1	>57	i
COc1ccc(C(c2nnnn2C2CCCC2)N2CCC(C)CC2)cc1 (stereo not given)	>57	i
COC(=O)CSc1nnc(C2COc3ccccc3O2)n1-c1ccccc1 (stereo not given)	>57	i
CCOC(=O)c1c(C)nc2c(C#N)cnn2c1C	>57	i
COc1ccc(-c2cc(C(=O)NCC(C)C)no2)cc1	>57	i
CC(C)C(c1nnnn1CC1CCCO1)N1CCN(Cc2ccc3c(c2)OCO3)CC1 (stereo not given)	>57	i
Cc1ccc(C)c(S(=O)(=O)N2CCC(c3nc4c(nnn4Cc4ccc(F)cc4)c(=O)[nH]3)CC2)c1	>57	i
COc1ccc(-c2ccc(=O)[nH]n2)cc1	>11.4	i
CCOc1ccccc1C(=O)Nc1ccccc1O	x	i
Cc1cc(C)nc(N2CCC(CNC(=O)CCc3ccccc3)CC2)n1	>57	i
C[N+]1(CCOS(=O)C23CC4CC(CC(C4)C2)C3)CCOCC1 (stereo not given)	>57	i
Cc1cccc(-c2nc(C#N)c(N3CCCCCC3)o2)c1	>57	i
O=C1CCC(c2ccc(-n3ccnc3)cc2)=NN1	x	i
O=C(Nc1ncnc2c1CCC2)C12CC3CC(CC(C3)C1)C2	>57	i
CC(C)(C)C1CCc2onc(C(=O)Nc3cnn(Cc4ccc(F)cc4)c3)c2C1 (stereo not given)	>57	i
CC(=O)Nc1ccc(NS(=O)(=O)c2cn(C)c(=O)n(C)c2=O)cc1	x	i
NC(=O)CSc1nnc(C2CC2)n1Cc1ccccc1	>57	i

Shown with the structure last: part of the list above.
Bst PK mod,TsaE inh,canonical_smiles
x,i,CN(C)C(=O)c1ccc(-c2ccc3ncnc(Nc4ccc(F)cc4)c3c2)cc1
>57,i,CCOc1ccccc1Oc1coc2cc(OC(=O)c3ccco3)ccc2c1=O
